High-throughput results (PubChem BioAssay)
STK33 kin inh: STK33 kinase inhibitors, primary screen, biochemical, luminescence, ADP-Glo, MBP substrate; actives 0.44% (n = 27,000); Serine/threonine-protein kinase 33 (Homo sapiens), Q9BYT3; inhibition, % at 12.5 µM; AID 2322, 2010; in the data active = inhibition above about 20%
Target sequence (Q9BYT3 whole entry, looked up): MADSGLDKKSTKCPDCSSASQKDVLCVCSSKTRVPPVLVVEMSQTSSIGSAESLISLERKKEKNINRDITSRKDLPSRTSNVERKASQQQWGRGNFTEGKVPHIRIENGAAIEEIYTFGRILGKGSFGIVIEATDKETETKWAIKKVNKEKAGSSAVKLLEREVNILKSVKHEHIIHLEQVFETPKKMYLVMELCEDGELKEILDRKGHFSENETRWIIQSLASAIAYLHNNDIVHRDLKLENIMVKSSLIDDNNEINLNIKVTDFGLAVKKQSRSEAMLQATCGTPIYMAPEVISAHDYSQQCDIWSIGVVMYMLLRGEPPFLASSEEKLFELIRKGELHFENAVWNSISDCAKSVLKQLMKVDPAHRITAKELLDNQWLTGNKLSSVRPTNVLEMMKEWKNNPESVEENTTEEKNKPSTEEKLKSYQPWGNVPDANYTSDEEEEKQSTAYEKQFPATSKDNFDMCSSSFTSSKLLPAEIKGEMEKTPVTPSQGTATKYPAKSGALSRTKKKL
An asterisk follows results filed as active; & = joins results of further samples. Some of the compounds tested, and most or all hits are left out here.

cpd	SMILES	STK33 kin inh
1	CCN(CC)CCOc1ccc(/C(=C(\Cl)c2ccccc2)c2ccccc2)cc1	2
2	CC(C)(C)NCC(O)c1ccc(O)c(CO)c1 (centres undefined)	-6
3	CCCNC(C)(C)COC(=O)c1ccccc1	0
4	CC(C)NC[C@@H](O)COc1ccc(CC(N)=O)cc1	0
5	CO[C@]12C[C@@H](COC(=O)c3cncc(Br)c3)CN(C)[C@@H]1Cc1cn(C)c3cccc2c13	2
6	CC(=O)[C@H]1CCC2C3CCC4=CC(=O)CC[C@]4(C)C3CC[C@@]21C (some centres undefined)	2
7	CCN1CCN(C(=O)N[C@@H](C(=O)N[C@@H]2C(=O)N3[C@@H]2SC(C)(C)[C@@H]3C(=O)O)c2ccccc2)C(=O)C1=O	2
8	CCC(C)C(=O)O[C@H]1C[C@H](O)C=C2C=C[C@H](C)[C@H](CC[C@@H](O)C[C@@H](O)CC(=O)O)C21 (some centres undefined)	3
9	CCOC(=O)C1=C(COCCN)NC(C)=C(C(=O)OC)C1c1ccccc1Cl (centres undefined)	2
10	O=C(CCCN1CCC(O)(c2ccc(Cl)cc2)CC1)c1ccc(F)cc1	1
11	CC(=O)[C@H]1CCC2[C@@H]3CCC4=CC(=O)CC[C@]4(C)C3CC[C@@]21C (some centres undefined)	2
12	CC(=O)OCC(=O)[C@@]12OC(C)(C)O[C@@H]1C[C@H]1[C@@H]3C[C@H](F)C4=CC(=O)C=C[C@]4(C)[C@@]3(F)[C@@H](O)C[C@@]12C	-6
13	Clc1ccc2c(c1)C(N1CCNCC1)=Nc1ccccc1O2	1
14	CN1CCN2c3ccccc3Cc3ccccc3C2C1 (centres undefined)	-1&-1
15	O=C(OCC(O)CO)c1ccccc1Nc1ccnc2cc(Cl)ccc12 (centres undefined)	-6

Part of the list above, as labelled records.
1	CCN(CC)CCOc1ccc(/C(=C(\Cl)c2ccccc2)c2ccccc2)cc1
  STK33 kin inh: 2
2	CC(C)(C)NCC(O)c1ccc(O)c(CO)c1 (centres undefined)
  STK33 kin inh: -6
3	CCCNC(C)(C)COC(=O)c1ccccc1
  STK33 kin inh: 0
4	CC(C)NC[C@@H](O)COc1ccc(CC(N)=O)cc1
  STK33 kin inh: 0
